Bioassay records (PubChem)
WNV NS2B-NS3 inh = inhibitors of WNV NS2B-NS3 protease, primary screen, biochemical, fluorogenic substrate; Genome polyprotein (West Nile virus), P06935; fluorogenic substrate Ex360/Em465; active compounds read low; z-score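 (tested at a level between 10 and 100 µM)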; hit rate 0.18% among 65,000; AID 577, 2007;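 active = z-score at -3 or under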;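 note: score is relative to mean and spread of the compound wells of a plate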
Target sequence (P06935 1371-1501 limits assumed): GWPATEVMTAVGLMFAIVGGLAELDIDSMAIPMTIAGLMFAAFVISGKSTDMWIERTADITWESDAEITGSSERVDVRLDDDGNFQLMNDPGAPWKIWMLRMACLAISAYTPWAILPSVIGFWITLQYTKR
Target sequence (P06935 1502-1679 limits assumed): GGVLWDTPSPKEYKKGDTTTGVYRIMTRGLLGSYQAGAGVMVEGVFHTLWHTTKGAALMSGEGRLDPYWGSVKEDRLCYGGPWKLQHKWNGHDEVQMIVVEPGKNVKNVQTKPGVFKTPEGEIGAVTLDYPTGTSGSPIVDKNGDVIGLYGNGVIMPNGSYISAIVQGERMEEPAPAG
Hsc70 = Hsc70 inhibitors, probe displacement, primary screen, biochemical, fluorescence polarization (AID 568). Hsc70 fluorescence polarization, probe displacement; higher % means a stronger effect; strong numbers were not always called active. displacement, % at 20 µM, or IC50 in µM where a hit was titrated. 83,000 tested, under 10 active;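 active = displacement above 50% without optical interference and an IC50 on retest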;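 note: ATPase domain with a fluorescein-tagged ATP probe; 0% = vehicle and 100% = excess ADP; read after one hour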
MT1-MMP reporter = inhibitors of MT1-MMP promoter transcription, cell-based, luciferase reporter, luminescence (AID 618) | MT1-MMP promoter luciferase reporter cells, luminescence | calls from a first round at 10 µM; hits with a dose series show EC50 in µM | hit rate 0.62% among 87,000;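 active = over half of the reporter light lost at 10 µM or EC50 under 50 µM; inactive = the rest and hits that failed the dose series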;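 note: actives suppress MT1-MMP promoter-driven transcription so potencies describe inhibitors; HT1080 fibrosarcoma cells; overnight exposure; toxic or luciferase-blocking compounds were not removed from the actives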
Active calls of the source: *; i = inactive; . = no result given.

structure | WNV NS2B-NS3 inh | Hsc70 | MT1-MMP reporter
C=CCSc1nnc(-c2cc(Br)ccc2N)c(=O)[nH]1 | -1.2 | 0.9% | i
CC1=CC(C)C2C(=O)N(O)C(=O)C2C1 (stereo not given) | . | 7.2% | i
CCOC(=O)CSc1nc2c(cnn2-c2ccc(C)cc2)c(=O)[nH]1 | 0.64 | 6.9% | i
O=C(Nc1ccc2oc(-c3ccc4ccccc4c3)nc2c1)c1cccs1 | . | -2.8% | i
O=C(O)CCN1C(=O)CC2(CCCCC2)C1=O | 1.6 | -11% | i
COCc1cc(C)nc(N2CCN(c3ccccc3)CC2)c1C#N | -1 | -2.7% | i
Cc1cc(C)n(CCOc2nonc2N)n1 | -0.12 | 2.1% | i
CC1(C)Cc2c(sc3nc(NCCN4CCOCC4)n4ncnc4c23)CO1 | -1.6 | -1.0% | i
O=C(CN1CCC(Cc2ccccc2)CC1)Nc1ccc2c(c1)OCCO2 | . | 1.6% | i
Fc1ccc(NCc2cccnc2)cc1F | . | 38% | i
CC1CC(C)CN(S(=O)(=O)c2ccc(NC(=O)C3COc4ccccc4O3)cc2)C1 (stereo not given) | 0.19 | -0.8% | i
COc1ccc(C(C)NC(=O)C2C(=O)NC3(C)CC2c2ccccc2O3)cc1 (stereo not given) | -0.34 | -1.8% | i
CCOc1ccccc1C(=O)N(CN1CCCC1=O)c1ccc(C)c(Cl)c1 | -0.78 | 2.0% | i
Cc1nn(C)c(C)c1NC(=O)CSc1nnc(C)n1-c1ccccc1 | 0.71 | 1.8% | i
COc1ccccc1/C=C/CN1CC(C)OC(C)C1 (stereo not given) | -0.42 | -1.9% | i
Cc1cc(C)n(Cc2ccc(C(=O)O)cc2)n1 | . | 1.8% | i
Cc1cc2cc(CCNS(C)(=O)=O)c(=O)[nH]c2cc1C | 1.3 | -7.4% | i
CP(=O)(COC(=O)c1ccccc1)COC(=O)c1ccccc1 | -0.89 | 1.2% | i
CCCC(=O)n1nc(-c2cccnc2)nc1N | . | 2.2% | i
Cn1c(-c2c(N)n(CCCc3ccccc3)c3nc4ccccc4nc23)nc2ccccc21 | . | -13% | i
COC(=O)c1cccc(S(=O)(=O)N(Cc2ccco2)Cc2cc3ccc(OC)cc3[nH]c2=O)c1 | -1.1 | 2.8% | i
CCc1cc2c(NCC(=O)O)ncnc2s1 | 0.62 | 6.5% | i
CC(=O)C1C(c2ccc(Cl)cc2)NC(=O)NC1(O)C(F)(F)F (stereo not given) | -1.1 | -1.3% | i
CCOC(=O)N1CCN(C(=O)c2ccccc2NC(=O)COc2ccccc2C)CC1 | -0.93 | -3.5% | i
Cc1cc(C)cc(N(CC(=O)N2CCc3ccccc32)S(=O)(=O)c2c(C)noc2C)c1 | 0.51 | -3.7% | i
CCCNC(=O)C1CCN(S(=O)(=O)c2ccc3nc4c(c(C(=O)O)c3c2)CCCCC4)CC1 | 0.21 | -2.2% | i
O=C(O)CCCNc1ccc(S(=O)(=O)Nc2ccccc2C(=O)O)cc1C(=O)O | -0.97 | -2.6% | i
CCOC(=O)CSc1nnc(-c2ccc(S(=O)(=O)NCc3cccs3)cc2)o1 | . | 6.0% | i
Cc1ccc(-c2nn(CC(=O)Nc3cccnc3)c(=O)c3ccccc23)cc1 | . | -0.4% | i
Cc1nnc(SCC(=O)Nc2nccs2)[nH]c1=O | -0.97 | -7.0% | i
Cc1ccc2nc(N3CCN(Cc4nnnn4Cc4ccccc4)CC3)c(C#N)cc2c1 | -0.44 | -2.6% | i
Cc1[nH]c(=O)[nH]c(=O)c1NC(=O)c1cccs1 | -0.07 | -6.7% | i
Cc1cccc(N(CC(O)CN(C)C)S(=O)(=O)c2ccccc2)c1 (stereo not given) | 0.88 | 2.0% | i
Cc1nc(SCC(=O)c2ccccc2)c(C#N)c(-c2ccco2)c1C(=O)NCc1ccco1 | 1 | -8.7% | i
CCOc1ccc2[nH]c(=O)c(CN(CC3CCCN3CC)C(=O)NCc3ccccc3)cc2c1 (stereo not given) | -0.24 | -3.0% | i
Cc1cc2n(n1)C(c1ccc3c(c1)OCO3)Nc1ccccc1-2 (stereo not given) | 1.1 | 1.8% | i
O=C(O)C1CC(=O)N(C2CCCCC2)C1c1ccccc1 (stereo not given) | . | 1.8% | i
COCCNC(=O)c1ccc2c(=O)n(CCOC)c(=O)[nH]c2c1 | -0.96 | -1.2% | i
Cn1c(=O)n(C)c2cc(S(=O)(=O)O)ccc21 | 1.3 | -2.6% | i
CCOC(=O)CNC(=O)CN1C(=O)CCSc2ccccc21 | -0.45 | 0.5% | i
CSc1nc(Oc2ccc(=O)n(C)n2)nc(N(C)C)n1 | . | -2.1% | i
COc1ccc2oc(=O)c(-c3nnc(NCc4ccco4)s3)cc2c1 | -0.54 | -1.3% | i
O=C(CSc1nc(-c2ccco2)cc(C(F)(F)F)n1)N1CCSCC1 | 1.4 | 6.7% | i
Cc1ccccc1OCc1nc2c3cnn(C)c3ncn2n1 | 0.61 | -2.4% | i
CCOc1cccc(-c2nnc3sc(-c4cc(OC)c(OC)cc4OC)nn23)c1 | -0.14 | 0.9% | i
CCCOC(=O)Nc1ccc(N2CCCCC2)cc1 | 0.03 | -0.9% | i
Clc1cccc(N2CCN(Cc3nc(-c4ccccc4)no3)CC2)c1 | -0.51 | -0.8% | i
COc1ccc(C)cc1N(CC(=O)O)S(=O)(=O)c1ccc(C)cc1 | -0.82 | -4.4% | i
CCSc1nc2c(c(=O)[nH]c(=O)n2C)n1C | -1.7 | -3.6% | i
CN(C)c1ccc(C(CC(=O)O)NC(=O)c2ccc(Cl)cc2)cc1 (stereo not given) | 1.9 | 0.4% | i
COc1ccc(-c2cc(C(F)(F)F)nc(S(C)(=O)=O)n2)cc1OC | 1.8 | -3.0% | i
CCCCn1nnnc1SCC(=O)NCc1ccccc1 | . | 3.5% | i
O=C(Nc1nonc1NC(=O)C1CCCCC1)C1CCCCC1 | -0.19 | -3.6% | i
CCN1CCN(c2ccc(NC(=O)COc3ccccc3Cl)cc2)CC1 | -0.11 | -3.4% | i
O=C1C=C(NC2CC2)C2(CCCCC2)O1 | -0.0095 | -2.3% | i
CCOC(=O)N1CCN(Cc2cc(=O)oc3ccc4ccccc4c23)CC1 | 0.2 | -2.5% | i
Cc1cnc(-c2nnc(N(C)C(=O)c3ccncc3)s2)cn1 | -0.74 | 6.3% | i
COc1ccc(N2CCN(C(c3ccco3)c3sc4nc(C)nn4c3O)CC2)cc1 (stereo not given) | -0.38 | 3.7% | i
CC(C)NC(=O)C1(O)c2ccccc2NC(=O)N1c1ccc(Cl)c(Cl)c1 (stereo not given) | -0.79 | -5.3% | i
COc1ccccc1-c1nc2s/c(=C\c3cccs3)c(=O)n2n1 | -2.2 | -8.0% | i

Rewritten with two lines to a compound: 4 of the compounds above
The line under a structure holds: WNV NS2B-NS3 inh, Hsc70, MT1-MMP reporter
- O=C(CSc1nc(-c2ccco2)cc(C(F)(F)F)n1)N1CCSCC1
 : 1.4, 6.7%, i
- COc1ccccc1-c1nc2s/c(=C\c3cccs3)c(=O)n2n1
 : -2.2, -8.0%, i
- CCCCn1nnnc1SCC(=O)NCc1ccccc1
 : ., 3.5%, i
- CCN1CCN(c2ccc(NC(=O)COc3ccccc3Cl)cc2)CC1
 : -0.11, -3.4%, i

(further entries)
structure | WNV NS2B-NS3 inh | Hsc70 | MT1-MMP reporter
COC(=O)c1cccc(NC(=O)C23CC4CC(C2)CC(n2cncn2)(C4)C3)c1 | . | -1.5% | i
COc1ccccc1CNc1ccc(C(=O)O)cc1 | . | -4.5% | i
CC(C)C(=O)Nc1c2c(nc3c1CCC3)CCCC2 | -0.91 | 2.2% | i
Cc1ccccc1-c1ccc(=O)n(CC(=O)Nc2ccc(C(=O)N3CCCC3)cc2)n1 | . | -2.4% | i
COCCOC(=O)C1=C(C)NC(=O)NC1C1CC=CCC1 (stereo not given) | -0.81 | 6.6% | i
Cc1ccc(NC(=O)N2CCCN(Cc3ccc(F)cc3)C2)cc1C | 1.7 | 0.5% | i
CCC(=NC(CC)CO)C1=C(O)CC(C)(C)CC1=O (stereo not given) | -1.1 | -1.6% | i
CC(C)NS(=O)(=O)c1ccc2c(c1)oc(=O)n2C | 1.4 | 0.0% | i
Cc1cnc(NC(=O)c2c(O)c3cccc4c3n(c2=O)CCC4)s1 | -0.56 | -8.9% | i
Cn1cccc1/C=N/n1cnnc1 | -0.21 | 6.9% | i
Cc1cc(C(=O)N2CCN(c3ncccn3)CC2)c(C)o1 | -0.91 | 1.3% | i
Cc1ccc(-n2c(SCC(=O)NCc3ccco3)nc3sc4c(c3c2=O)CC(C)(C)SC4)cc1 | . | -1.1% | i
COc1ccccc1C(=O)Nc1c2c(nn1-c1cccc(C)c1C)CS(=O)(=O)C2 | -1.1 | -5.7% | i
COC(=O)CCP(=O)(O)Cc1ccccc1CP(=O)(O)CCC(=O)OC | 0.37 | -5.8% | i
O=C(Nc1ccc(S(=O)(=O)N2CCCC2)cc1)C1COc2ccccc2O1 (stereo not given) | -0.3 | 3.1% | i
CC1CN(S(=O)(=O)c2cccc(C(=O)NCCCn3ccnc3)c2)CC(C)O1 (stereo not given) | . | 1.6% | i
COc1cccc(-c2nn(-c3ccccc3)cc2C(=O)Nc2nccs2)c1 | 1.1 | -5.0% | i
Cn1nccc1C(=O)N1CCc2ccccc21 | . | 1.3% | i
CCn1c(SCC(=O)Nc2cccc(F)c2)nnc1-c1cc2cc(Br)ccc2o1 | 0.86 | 4.4% | i
Cc1nn(Cc2ccc(C(=O)NC(C)(C)C)o2)c(C)c1Br | 0.57 | 1.4% | i
COC(=O)c1cccc(NS(=O)(=O)c2cccs2)c1C | -1.6 | 5.1% | i
CC(C)(C)n1ncc2c(=O)n(CC(=O)N3CCN(c4ccccc4)CC3)cnc21 | -0.97 | 0.3% | i
N#Cc1nc(COc2ccccc2Cl)oc1NCc1ccco1 | . | -9.5% | i
NC(=O)c1ccsc1NC(=O)COC(=O)c1ccccc1NCc1ccco1 | -0.9 | -7.8% | i
CCC(C(=O)N1CC2(C)CC1CC(C)(C)C2)N1C(=O)c2ccccc2C1=O (stereo not given) | 3 | -1.6% | i
O=C(NCc1ccc(Cl)cc1)C1C2C=CC3(CN(Cc4cccnc4)C(=O)C13)O2 (stereo not given) | -0.75 | -1.3% | i
Cc1nn(-c2cc(C)c3ccccc3n2)c2c1CCC2 | -0.49 | -2.8% | i
O=P(O)(CCc1ccccn1)CN1CCCCC1 | -0.21 | 0.6% | i
CCOC(=O)Nc1ccc2c(c1)N(C(=O)CCN(C)C)c1ccccc1S2 | 0.03 | -0.5% | i
O=C(CCN1CCN(c2ccccn2)CC1)Nc1ccc(F)cc1 | 0.77 | -2.3% | i
Cc1ccc(S(=O)(=O)NC(=O)c2cc(C)n(CCCn3ccnc3)c2C)cc1 | -0.26 | 0.4% | i
Cc1ccc(OCC(=O)Nc2ccc(S(=O)(=O)N3CCN(C)CC3)cc2)cc1 | . | 2.3% | i
C/C(=N/Oc1nc(C)cc(C)n1)c1ccc(Cl)cc1Cl | . | -3.7% | i
O=C(CN(C(=O)CSc1nnc(COc2ccccc2)o1)c1ccc(F)cc1)NC1CCCCC1 | -1.4 | 1.9% | i
Cc1cc(C(=O)COc2ccc3ccc(=O)oc3c2)c(C)n1Cc1cccs1 | -0.42 | -2.7% | i
N#Cc1nc(Cc2ccccc2)oc1NCc1ccccc1Cl | -0.15 | 3.4% | i
COc1cc(C2Nc3cccc4cccc(c34)N2)ccc1OC(C)=O | -0.01 | -10% | i
CCn1c(SCC(=O)NC)nnc1C(C)C | 0.02 | 0.2% | i
CC(=O)Nc1ccc2nc(N)sc2c1 | . | 0.8% | i
CCOc1cc(C2C(C#N)=C(N)Oc3n[nH]c(C)c32)ccc1OCCN1CCOCC1 (stereo not given) | -0.87 | 1.9% | i
CC(C)c1ccccc1OCCNS(C)(=O)=O | 0.16 | 3.1% | i
O=C(OCCN1C(=O)c2ccccc2C1=O)C1CCN(S(=O)(=O)c2cccs2)CC1 | 0.1 | -7.2% | i
O=C(CCc1nc(-c2ccccc2)no1)NC1CCCCC1 | . | -8.4% | i
O=C(COc1ccc2ccccc2c1Br)Nc1ncn[nH]1 | 0.53 | -3.3% | i
O=C(Nc1ccc(Cl)cn1)c1ccc(COCC(F)(F)C(F)F)o1 | -0.16 | -4.1% | i
O=S(=O)(Nc1cccc(-c2nc3cccnc3s2)c1)c1ccc2c(c1)OCCO2 | 0.68 | 3.5% | i
COc1cc2nc(C)sc2cc1SC | 0.39 | 1.1% | i
C=CCN1C(=O)C2(C(C#N)=C(N)Oc3n[nH]c(CCC)c32)c2ccccc21 (stereo not given) | -0.58 | -3.0% | i
CCN(Cc1ccccc1)C(=O)Cn1c(=O)n(CC(=O)NCc2ccco2)c(=O)c2sccc21 | 0.95 | -2.0% | i
O=c1sc2ccccc2n1COc1ccccc1 | 0.92 | 0.9% | i
CCNC(=O)c1ccc2c(c1)S(=O)(=O)c1ccccc1C2=O | -1.6 | -3.7% | i
C=CCn1c(SCC(=O)c2ccc(NS(=O)(=O)c3ccccc3)cc2)nnc1-c1cccs1 | 0.71 | 1.2% | i
CCOC(=O)C(C(=O)N1CCOCC1)C1CCCCC1 (stereo not given) | -0.44 | 1.0% | i
